# Screening results deposited in PubChem BioAssay by Broad Institute.
# Vaccinia inh: Vaccinia orthopox stage-specific inhibition; activity change (mCherry), % (concentration not given with the values); AID 1053133; Vaccinia-infected cells, mCherry/Venus stage reporter fluorescence; stronger effect = lower value; some inactives read as strong as hits; 89,000 tested, 0.01% active;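 active means mCherry past -33% and 40 or more points under the early reporter, replicates agreeing; inconclusive means past -33% without that gap or agreement; tested in A549 cells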;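 further: scaled between vehicle wells and reference inhibitor wells; 23 nL library stock went into each well; one replicate is shown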
# Vaccinia inh Venus: further read-out of Vaccinia inh, marked with its call; activity change (Venus), %; measured here: Venus reporter, other viral stage;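 negative = less Venus signal; first of two replicates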
# Active calls of the source: *; ? = inconclusive; nt = no result given.
SMILES,Vaccinia inh,Vaccinia inh Venus
CC(C)NC(=O)Nc1ccc2c(c1)C(=O)N([C@@H](C)CO)C[C@H](C)[C@@H](CN(C)S(=O)(=O)c1ccccc1)OCCCC[C@H](C)O2,-7,-4
COCCNC(=O)C[C@@H]1CC[C@@H]2[C@H](COc3ccc(NC(=O)Nc4cccc(F)c4)cc3C(=O)N2C)O1,22,18
COc1ccc2c3c(n(C)c2c1)[C@@H](CO)N(C(=O)c1ccccc1)CC31CCN(C(C)=O)CC1,18,9
Cc1ccc(S(=O)(=O)N[C@@H]2CC[C@H](CC(=O)O)O[C@H]2CO)cc1,-2,1
COc1cccc(S(=O)(=O)Nc2ccc3c(c2)[C@H]2C[C@H](CC(=O)NC4CCCCC4)O[C@@H](CO)[C@H]2O3)c1,-6,-2
O=S(=O)(Cc1ccccc1)N1CCCCN2[C@H](C1)[C@H](c1ccc(-c3cccnc3)cc1)[C@@H]2CO,-8,-17
COc1ccc2c3c(n(C)c2c1)[C@@H](CO)N(Cc1ccc(F)cc1)CC31CN(C)C1,-8,-4
C[C@@H]1CN([C@H](C)CO)C(=O)Cc2cc(NC(=O)CCCN(C)C)ccc2O[C@@H]1CN(C)CC1CCCCC1,-1,-5
C[C@H](CO)N1C[C@H](C)[C@@H](CN(C)Cc2ccc(Oc3ccccc3)cc2)Oc2ccc(NS(=O)(=O)c3ccc(F)cc3)cc2C1=O,1,-7
CO[C@@H]1CN(C)C(=O)c2ccc(NC(=O)Nc3ccc(Cl)cc3)cc2OC[C@H](C)N(C(=O)Nc2c(C)noc2C)C[C@H]1C,-3,0
CCN1[C@@H]2c3ccc(-c4ccc(F)cc4)c(=O)n3C[C@@H]2[C@@H](CO)[C@@H]1C(=O)NCc1ccncn1,5,8
C[C@H]1CN([C@@H](C)CO)C(=O)c2cc(C#Cc3ccccc3)cnc2O[C@@H]1CN(C)C(=O)CN(C)C,5,4
C[C@H](CO)N1C[C@H](C)[C@H](CN(C)CC2CCCCC2)OCc2cnnn2CCCC1=O,2,6
C[C@@H]1CN([C@H](C)CO)S(=O)(=O)c2ccc(/C=C/c3ccccc3)cc2O[C@H]1CN(C)C(=O)Nc1ccc(F)cc1,?,nt
CCC(=O)N(C)C[C@H]1Oc2cc(-c3cncnc3)ccc2S(=O)(=O)N([C@@H](C)CO)C[C@@H]1C,25,6
C[C@@H]1CCCCO[C@@H](CN(C)Cc2ccc(C(=O)Nc3ccccc3N)cc2)[C@@H](C)CN([C@H](C)CO)C(=O)c2cc(NC(=O)Nc3ccc(F)cc3)ccc2O1,9,-5
O=C(C[C@H]1CC[C@@H]2[C@H](COC[C@@H](O)CN2C(=O)Nc2ccc(F)cc2)O1)NCCc1ccncc1,-1,-3
O=C(NCC[C@H]1CC[C@H](NC(=O)c2cnccn2)[C@H](CO)O1)Nc1ccc(F)cc1,1,13
O=C(N[C@@H]1CC[C@@H](CCn2cc(C3CCCCC3)nn2)O[C@@H]1CO)c1cccnc1,22,20
C[C@@H]1CN([C@@H](C)CO)C(=O)c2cccc(NC(=O)C3CCCCC3)c2O[C@@H]1CN(C)CC1CC1,11,11

# The closing seven records of the part before are carried over, then new ones follow.
SMILES,Vaccinia inh,Vaccinia inh Venus
C[C@@H]1CN([C@H](C)CO)S(=O)(=O)c2ccc(/C=C/c3ccccc3)cc2O[C@H]1CN(C)C(=O)Nc1ccc(F)cc1,?,nt
CCC(=O)N(C)C[C@H]1Oc2cc(-c3cncnc3)ccc2S(=O)(=O)N([C@@H](C)CO)C[C@@H]1C,25,6
C[C@@H]1CCCCO[C@@H](CN(C)Cc2ccc(C(=O)Nc3ccccc3N)cc2)[C@@H](C)CN([C@H](C)CO)C(=O)c2cc(NC(=O)Nc3ccc(F)cc3)ccc2O1,9,-5
O=C(C[C@H]1CC[C@@H]2[C@H](COC[C@@H](O)CN2C(=O)Nc2ccc(F)cc2)O1)NCCc1ccncc1,-1,-3
O=C(NCC[C@H]1CC[C@H](NC(=O)c2cnccn2)[C@H](CO)O1)Nc1ccc(F)cc1,1,13
O=C(N[C@@H]1CC[C@@H](CCn2cc(C3CCCCC3)nn2)O[C@@H]1CO)c1cccnc1,22,20
C[C@@H]1CN([C@@H](C)CO)C(=O)c2cccc(NC(=O)C3CCCCC3)c2O[C@@H]1CN(C)CC1CC1,11,11
C[C@H](CO)N1C[C@H](C)[C@@H](CN(C)S(C)(=O)=O)Oc2c(NC(=O)c3ccc(-c4nccs4)cc3)cccc2C1=O,37,19
COCC(=O)Nc1ccc2c(c1)[C@@H]1C[C@H](CC(=O)NCc3cccc(F)c3)O[C@H](CO)[C@@H]1O2,1,1
Cc1noc(C)c1S(=O)(=O)Nc1ccc2c(c1)CC(=O)N([C@@H](C)CO)C[C@H](C)[C@H](CN(C)CC1CCCCC1)O2,-21,-17
COCC#Cc1ccc([C@@H]2[C@H](CO)N3CCCCN(S(=O)(=O)c4ccccc4F)C[C@@H]23)cc1,-3,-13
COc1ccccc1NC(=O)N[C@H]1CC[C@@H](CCNS(=O)(=O)c2ccc(Cl)cc2)O[C@@H]1CO,-18,-16
C[C@@H]1CCCCO[C@H](CN(C)CC2CC2)[C@@H](C)CN([C@H](C)CO)C(=O)c2cc(NC(=O)CCC(F)(F)F)ccc2O1,8,13
COc1ccc(OC(=O)N(C)C[C@@H]2OCc3ccccc3-c3c(n(C)c4ccccc34)C(=O)N([C@H](C)CO)C[C@H]2C)cc1,?,nt
C[C@H](CO)N1C[C@H](C)[C@@H](CN(C)S(=O)(=O)c2ccc(F)cc2)OCCCC[C@H](C)Oc2ccc(NC(=O)CCCN(C)C)cc2C1=O,-7,-14
CCC(=O)N1CCC2(CC1)CN(C(=O)CN1CCOCC1)[C@@H](CO)c1c2c2ccc(OC)cc2n1C,7,2
CC(C)NC(=O)N(C)C[C@H]1OCCCC[C@H](C)Oc2ccc(N(C)C)cc2C(=O)N([C@@H](C)CO)C[C@H]1C,13,7
CNC[C@H]1OCCCC[C@H](C)Oc2ccc(NC(=O)Nc3c(C)noc3C)cc2C(=O)N([C@H](C)CO)C[C@@H]1C,8,13
CC(C)NC(=O)NCC[C@H]1CC[C@@H](NC(=O)Nc2ccccc2)[C@@H](CO)O1,5,5
COCCN(C[C@H]1N[C@H](CO)[C@@H]1c1ccc(-c2cccc(C#N)c2)cc1)C(C)=O,-7,-2
C[C@H](CO)N1C[C@H](C)[C@H](CN(C)C(=O)Nc2ccc(C(F)(F)F)cc2)OCCCC[C@H](C)Oc2ccc(NS(=O)(=O)c3cn(C)cn3)cc2C1=O,-5,-3
COc1ccc(NC(=O)N2CC(=O)N3[C@@H](CO)[C@@H](c4ccc(C#CCC5CCCC5)cc4)[C@@H]3C2)cc1,?,nt
COc1ccc(NC(=O)Nc2ccc3c(c2)C(=O)N([C@@H](C)CO)C[C@@H](C)[C@@H](CN(C)S(=O)(=O)c2ccc(C)cc2)OCCCC[C@@H](C)O3)cc1,-4,-4
Cc1ccc(S(=O)(=O)N(C)C[C@@H]2OCCCC[C@@H](C)Oc3ccc(NC(=O)c4ccncc4)cc3C(=O)N([C@@H](C)CO)C[C@H]2C)cc1,?,nt
COc1ccccc1C#Cc1ccc2c(c1)O[C@H](CN(C)Cc1cncnc1)[C@H](C)CN([C@@H](C)CO)S2(=O)=O,-31,-26
C[C@H]1CN([C@@H](C)CO)C(=O)c2cc(C3=CCCCC3)cnc2O[C@@H]1CN(C)C(=O)c1ccccc1,-14,-15
OC[C@@H]1[C@@H](c2ccc(-c3ccccc3F)cc2)[C@H]2CN(Cc3cccnc3)CCCCN12,-20,-26
CC(C)(C)OC(=O)CC[C@]12N=C(c3ccc(OCCCO)cc3)O[C@H]1c1ccccc1CN(C(=O)c1ccccc1)C2=O,-21,-10
C[C@H](CO)N1C[C@H](C)[C@H](CN(C)Cc2ccc(C(=O)O)cc2)OCCCC[C@H](C)Oc2ccc(NC(=O)C3CCCCC3)cc2C1=O,19,8
C/C=C/c1ccc([C@H]2[C@H](CO)N3C(=O)CN(C(=O)NC4CCCCC4)C[C@@H]23)cc1,6,7
CO[C@@H]1CN(C)C(=O)c2ccc(NC(C)=O)cc2OC[C@H](C)N(C(=O)CC2CC2)C[C@H]1C,4,11
COc1ccc(CN(C)C[C@H]2Oc3ccc(NC(=O)Nc4ccccc4)cc3C(=O)N([C@@H](C)CO)C[C@H]2C)cc1,?,nt
O=C(C1CCCCC1)N1C[C@@H]2[C@H](c3ccccc31)[C@H](CO)N2Cc1ccccc1Cl,?,nt
O=C(Cc1ccccc1)N1CC2(C1)[C@@H](c1ccccc1)[C@H](CO)N2S(=O)(=O)Cc1ccccc1,-3,-2
CCN1[C@@H]2c3ccc(-c4ccccc4OC)c(=O)n3C[C@@H]2[C@@H](CO)[C@@H]1C(=O)NCC1CC1,6,1
CO[C@H]1CN(C)C(=O)c2ccc(NC(=O)Nc3ccccc3)cc2OC[C@H](C)N(C(=O)CC2CC2)C[C@H]1C,2,3
C[C@@H]1CCCCO[C@H](CN(C)C(=O)Nc2ccc(F)cc2)[C@@H](C)CN([C@@H](C)CO)C(=O)c2cc(NC(=O)NC3CCCCC3)ccc2O1,-35,-23
O=C(c1ccccc1F)N1CC(=O)N2[C@H](C1)[C@H](c1ccc(-c3ccccc3)cc1)[C@@H]2CO,-7,-5
COc1ccccc1NC(=O)N[C@@H]1C=C[C@H](CC(=O)NCc2ccc(Cl)c(Cl)c2)O[C@@H]1CO,-19,-8
O=C(OC[C@@H]1[C@H]2c3ccccc3OC1(CO)N=C1SCc3ccccc3CN12)c1ccccc1,-5,-5
Cc1ccc(-c2ccc3c(c2)O[C@H](CN(C)C(=O)Nc2ccc(F)cc2)[C@H](C)CN([C@H](C)CO)S3(=O)=O)cc1,?,nt
C[C@@H]1CN([C@@H](C)CO)C(=O)c2cc(C#CCN(C)C)cnc2O[C@@H]1CN(C)Cc1ccc(-c2ccccc2)cc1,?,nt
O=C(NC[C@@H]1CC[C@@H]2[C@@H](CN2Cc2nccs2)O1)C1CCC1,5,9
C[C@@H]1CN([C@H](C)CO)C(=O)c2cc(NC(=O)CCC(F)(F)F)ccc2O[C@@H](C)CCCCO[C@H]1CN(C)S(=O)(=O)c1ccccc1,19,5
CC(=O)N1CC[C@@H]2[C@H]1c1cc(-c3ccccc3)ccc1N(C)[C@@H]2CO,1,-6
COc1ccc(CNC(=O)C[C@H]2C[C@@H]3c4cc(N(C)C)ccc4O[C@@H]3[C@H](CO)O2)cc1,11,7
CN(C)C(=O)C[C@@H]1C[C@@H]2c3cc(NC(=O)NC4CCCCC4)ccc3O[C@@H]2[C@@H](CO)O1,1,-5
CO[C@@H]1CN(C)C(=O)c2cc(NC(=O)C3CCCC3)ccc2OC[C@H](C)N(CCC(F)(F)F)C[C@@H]1C,-3,-2
C[C@@H]1CN([C@H](C)CO)C(=O)c2cccc(NS(=O)(=O)c3ccccc3)c2O[C@H]1CN(C)Cc1ccc(-c2ccccc2)cc1,-7,-17
C[C@H](CO)N1C[C@H](C)[C@@H](CN(C)Cc2ccc(Oc3ccccc3)cc2)Oc2ccc(NC(=O)Nc3cccc4ccccc34)cc2C1=O,-18,-9
CCCNC(=O)C[C@H]1C[C@@H]2c3cc(NC(=O)NC4CCCCC4)ccc3O[C@@H]2[C@@H](CO)O1,8,9
COc1ccc(-c2cnc3c(c2)C(=O)N([C@@H](C)CO)C[C@@H](C)[C@@H](CN(C)C(=O)Cc2ccccc2)O3)cc1,-25,-31
COc1ccc(NC(=O)N(C)C[C@H]2Oc3ccc(NC(=O)NC4CCCCC4)cc3C(=O)N([C@H](C)CO)C[C@H]2C)cc1,18,11
C[C@@H]1CN([C@H](C)CO)C(=O)c2cc(NC(=O)Nc3ccccc3)ccc2O[C@@H](C)CCCCO[C@H]1CN(C)C(=O)Nc1ccc(C(F)(F)F)cc1,-10,-12
CCC(=O)N(C)C[C@H]1Oc2cc(-c3cccc(OC)c3)ccc2S(=O)(=O)N([C@@H](C)CO)C[C@H]1C,0,-6
O=C(C[C@H]1C[C@@H]2c3cc(NS(=O)(=O)c4ccc(F)cc4)ccc3O[C@@H]2[C@@H](CO)O1)N1CCc2ccccc2C1,-2,5
CNC(=O)C[C@H]1CC[C@@H]2[C@H](COC[C@H](O)CN2Cc2ccncc2)O1,1,0
# Continuation.
SMILES,Vaccinia inh,Vaccinia inh Venus
CN(C)c1ccc2c(c1)[C@@H]1C[C@@H](CC(=O)NCc3ccccc3F)O[C@H](CO)[C@@H]1O2,0,-1
Cc1ccccc1S(=O)(=O)NCC[C@H]1CC[C@H](NC(=O)C2CCCC2)[C@@H](CO)O1,-10,0
C[C@@H]1CN([C@@H](C)CO)C(=O)c2cc(C3=CCCC3)cnc2O[C@@H]1CN(C)C(=O)c1ccc(F)cc1,14,7
N#C[C@@H]1[C@H](c2ccccc2-c2ccccc2F)[C@H](CO)N1C(=O)C1CCOCC1,-31,-21
C[C@@H]1CN([C@H](C)CO)C(=O)c2cc(C#Cc3cccc(F)c3)cnc2O[C@H]1CN(C)CC1CCCC1,?,nt
O=C(C[C@H]1C=C[C@H](NC(=O)Nc2ccc(C(F)(F)F)cc2)[C@@H](CO)O1)NCc1ccccn1,-13,-4
O=C(Cc1ccccn1)N[C@H]1CC[C@H](CCn2cc(-c3ccccc3)nn2)O[C@@H]1CO,11,10
C[C@@H]1CCCCO[C@H](CN(C)S(=O)(=O)c2ccccc2)[C@H](C)CN([C@H](C)CO)C(=O)c2cc(NS(=O)(=O)c3ccc(Cl)cc3)ccc2O1,?,nt
Cc1ccc(-c2ccc([C@H]3[C@H](CO)N4CCCCN(C)C[C@@H]34)cc2)cc1,-8,-8
O=C(Nc1ccc(F)cc1)N1C[C@H]2[C@@H](c3ccccc31)[C@@H](CO)N2Cc1ccccc1,-17,-11
O=C(C[C@@H]1C[C@@H]2c3cc(NC(=O)Nc4ccccc4)ccc3O[C@@H]2[C@H](CO)O1)NC1CCCCC1,11,8
CNC[C@H]1Oc2c(NS(=O)(=O)c3ccc(F)cc3)cccc2C(=O)N([C@@H](C)CO)C[C@@H]1C,23,15

# These rows are one share of the data; the hit share may differ from the screen's.
